GLA inh pH 4.5 = qHTS Assay for Inhibitors of Human alpha-Galactosidase at pH 4.5; purified enzyme, 4-MU-alpha-Gal fluorescence, pH 4.5; AID 1467, 2008; activity change, negative = inhibition, % at 105 µM; 230,000 tested, under 10 active; Alpha-galactosidase A (Homo sapiens), P06280; inconclusive = small, poorly fitted or top-dose-only inhibition, or a rising curve; inactive = flat fitted curve, though single readings scatter; no compound was filed as active;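 note: 0% = full activity with enzyme and -100% = basal without enzyme; dose as in the result columns while the protocol names 77 µM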
Target sequence (P06280 whole entry, looked up): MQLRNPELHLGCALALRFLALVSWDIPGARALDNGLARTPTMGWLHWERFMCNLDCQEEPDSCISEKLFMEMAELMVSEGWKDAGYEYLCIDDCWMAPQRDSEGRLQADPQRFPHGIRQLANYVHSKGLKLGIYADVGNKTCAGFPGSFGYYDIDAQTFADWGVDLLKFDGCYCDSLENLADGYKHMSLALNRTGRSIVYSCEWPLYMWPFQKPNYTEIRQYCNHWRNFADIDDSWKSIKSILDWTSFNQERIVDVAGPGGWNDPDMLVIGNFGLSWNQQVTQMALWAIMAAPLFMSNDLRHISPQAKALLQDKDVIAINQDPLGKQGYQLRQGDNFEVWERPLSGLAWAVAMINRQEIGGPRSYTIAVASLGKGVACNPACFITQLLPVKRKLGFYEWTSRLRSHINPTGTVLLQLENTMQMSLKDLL
Rango complex inh = qHTS Assay for Inhibitors of Rango (Ran-regulated importin-beta cargo) - Importin beta complex formation; Importin subunit beta-1 (Homo sapiens), Q14974; Rango CFP/YFP FRET sensor + importin beta, 45 min; Potency, µM (highest dose often 92.2 µM), without a hit: top-dose inhibition of complex formation; 340,000 compounds, 0.031% hits; AID 540263, 2011; active = rising FRET ratio curve, often small or poorly fitted; inconclusive = mostly compound fluorescence or quenching in the first reads; inactive = flat curves in all reads;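 note: potency is the fitted concentration of half-maximal effect; 0% = DMSO wells and 100% = buffer wells lacking importin beta; nearly all actives have a fitted effect of over 15% in size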
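FRET biosensor Rango (snurportin 1 IBB between N-terminal EYFP and C-terminal Cerulean), 50 nM in PBS/1 mM DTT/0.02% Tween-20/0.1% BSA, preincubated 5 min RT with compound; 0.125 microM importin beta added, 45 min RT, CFP/YFP FRET ratio read.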
Rango release inh = qHTS Assay for Inhibitors of RanGTP induced Rango (Ran-regulated importin-beta cargo) - Importin beta complex dissociation; 340,000 compounds, 0.071% hits; AID 540253, 2011; Potency, µM (titrated, usually from 46.1 µM), for the others: top-dose activity change, negative = inhibition; Snurportin-1 (Homo sapiens) + GTP-binding nuclear protein Ran (Homo sapiens) + Importin …; Biochemical FRET Rango-importin beta, RanGTP-induced dissociation; active means falling FRET ratio curve, often poorly fitted, with flat reads before Ran was added; inconclusive means other falling curves, or compound fluorescence or quenching; inactive means flat or rising ratio curve;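 note: potency is the fitted concentration of half-maximal effect; % of control where 0% means no effect; nearly all actives have a fitted effect of over 45% in size; -100% = wells without RanGTP and RCC1; the record marks most hits as doubtful in a second field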
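Compounds preincubate 5 min with complex of recombinant Rango and importin beta in PBS with 1 mM DTT. Ran (0.6 uM) loaded with 2 mM GTP plus 0.2 uM RCC1 starts dissociation; FRET is recorded 45 min later.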
miR-21 FLuc = qHTS Assay for Modulators of miRNAs and/orActivators of miR-21 | HeLa miR-21 FLuc reporter, luciferase, 48 h | Potency, µM (series often up to 38.3 µM), inactives show top-dose reporter change, positive = more light | 340,000 tested, under 10 active | AID 2288, 2010; active = well fitted rising curve with a large enough effect; inconclusive = small, poorly fitted or top-dose-only effect; inactive = no such curve, though single readings can be large or run the other way;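 note: % of control where 0% means no effect; miR-21 action dims this reporter so a rising signal means less miR-21 action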
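HeLa cells endogenously expressing miR-21, stably carrying CMV-driven firefly luciferase with a downstream miR-21 binding site, 2000 cells/well. Titrations up to approximately 40 uM, 48 hours; luciferase luminescence read.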
Numbers without * were called inactive; ? = inconclusive; . = no result given; & = joins results of further samples.

SMILES | GLA inh pH 4.5 | Rango complex inh | Rango release inh | miR-21 FLuc
COc1cccc(-c2nc(CS(=O)(=O)CC(=O)NC3CCCCCC3)c(C)o2)c1 | . | -0.9% | 8% | -1%
Cc1ccc2[nH]cc(CCNC(=O)CN3C(=O)c4ccccc4C3=O)c2c1 | 3 | 1.9% | -6% | -10%
CCCSc1ccc([C@@H]2[C@@H]3C(=O)N(CC)C(=O)[C@@H]3[C@]3(C(=O)OC)CCCCN23)cc1OC | . | 1.1% | -10% | .
O=C(NC(Cc1c[nH]c2ccccc12)C(=O)N/N=C/c1ccc(Cl)cc1)c1cccs1 (stereo unspecified) | -11 | -3.7% | -2% | -4%
COc1ccccc1C(=O)NCCC(=O)N1CCN(S(=O)(=O)c2ccccc2C(F)(F)F)CC1 | . | 1.8% | 4% | .
Cc1cc(C)c2c(n1)sc1c(O)cc(=O)[nH]c12 | 0 | 0.8% | -5% | -3%
O=C1NC(CCc2ccccc2)C(=O)N1Cc1cccc2ccccc12 (stereo unspecified) | 3 | 0.6% | 1% | -2%
COc1ccc(/C=N/NC(=O)c2ccccc2NC(=O)c2ccco2)c(OC)c1 | -6 | ? | 2% | 1%
CC(CC(=O)N1CCN(c2ccccc2)CC1)S(=O)(=O)c1ccc2c(c1)NC(=O)CO2 (stereo unspecified) | . | 0.0% | 5% | 30%
Cc1cc(=O)[nH]c(Nc2ccc(Cl)cc2)n1 | . | 3.0% | 1% | 0%
CCOC(=O)CNc1c(-c2ccc(O)cc2)nc2ccc(Cl)cn12 | -12 | ? | -22% | -30%
CC12CCC(c3c(C(=O)N4CCOCC4)nn(-c4ccccc4)c31)C2(C)C (stereo unspecified) | -1 | -1.5% | -15% | 8%
CC(C)NC(=O)c1ccccc1NC(=O)c1ccccc1N(C)S(C)(=O)=O | -2 | 9.1% | 3% | -13%
CCCCC(=O)Nc1ccccc1C(=O)OCC(=O)c1ccc2c(c1)OCCO2 | -13 | -3.0% | 5% | -32%
N#Cc1nc(-c2cccc3ccccc23)oc1NCC1CCCO1 (stereo unspecified) | ? | -4.0% | -6% | -50%
CC1=Nn2c(nnc2-c2ccccc2)SC1 | 2 | -3.3% | 1% | -2%
CC(C)(C)OC(=O)NC1CNNC1=O (stereo unspecified) | . | -0.7% | 8% | .
Cn1cc(CNCc2ccc(OC(F)(F)F)cc2)c(-c2ccc3c(c2)OCCO3)n1 | -4 | 4.3% | -10% | 23%
CC1(C)Cc2cccc(OCC(=O)OCc3nnc(-c4ccc([N+](=O)[O-])cc4)o3)c2O1 | . | -0.2% | 8% | .
CCOC(=O)C(=CNc1cccc(C)n1)C(=O)OCC | 8 | -2.1% | 6% | -4%
Cc1cc(C)c(C)c(C(=O)c2ccccc2C(=O)O)c1C | 8 | -1.6% | -20% | 6%
Cc1c(C(=O)Nc2cccc(-c3nnc4n3CCCCC4)c2)oc2ccccc12 | 7 | 2.9% | -10% | 17%
O=C(Nc1ccc2oc(=O)ccc2c1)c1ccc(-c2cccc([N+](=O)[O-])c2)o1 | -4 | 1.2% | 0% | -2%
CN(C)S(=O)(=O)c1ccc(C(=O)NCC2CC2(Cl)Cl)cc1 (stereo unspecified) | . | -3.5% | -13% | -3%
CCc1ccccc1NC(=O)c1cnn(-c2ccccc2)c1C | . | 2.3% | 21% | -29%

Grouped by structure, the entries above containing a nitro group on carbon (two)
SMILES | GLA inh pH 4.5 | Rango complex inh | Rango release inh | miR-21 FLuc
CC1(C)Cc2cccc(OCC(=O)OCc3nnc(-c4ccc([N+](=O)[O-])cc4)o3)c2O1 | . | -0.2% | 8% | .
O=C(Nc1ccc2oc(=O)ccc2c1)c1ccc(-c2cccc([N+](=O)[O-])c2)o1 | -4 | 1.2% | 0% | -2%

More records:
SMILES | GLA inh pH 4.5 | Rango complex inh | Rango release inh | miR-21 FLuc
COc1cccc(C(=O)NCC(=O)N/N=C(C)\C=C\c2ccccc2)c1 | -4 | 5.3% | 6% | 0%
C=CCOc1ccc(CNCc2cccnc2)cc1 | . | -1.3% | -2% | -9%
COc1ccc(NC(=O)CSc2n[nH]c(-c3ccco3)n2)cc1 | 0 | 4.9% | -3% | 0%
CN(C)Cc1ccccc1CCc1ccccc1 | . | ? | 9% | .
C[C@H](CO)N1C[C@H](C)[C@@H](CN(C)C)Oc2c(NS(=O)(=O)c3ccccc3)cccc2C1=O | . | 0.1% | 0% | .
CCOc1ccc(S(=O)(=O)Nc2cccc(C(=O)NCCCn3ccnc3)c2)cc1 | . | 5.5% | -1% | .
CSc1cccc(NC(=O)COC(=O)C2CCN(S(=O)(=O)c3ccccc3)CC2)c1 | . | -0.1% | -7% | .
O=C(c1cccc(-c2nnc(-c3ccccc3)o2)c1)N1CCCCC1 | 3 | 0.0% | 5% | -50%
COc1ccc(CC(=O)NNc2ncnc3c2cnn3-c2ccc(C)cc2)cc1 | 2 | -7.1% | 15µM* | -3%
Cc1ccc(C)c(OCCC(=O)OCC(=O)NC2CCCC2)c1 | . | 2.7% | 14% | .
CC(=O)Nc1ccc(/C=C/c2nc3ccccc3[nH]c2=O)cc1 | . | ? | ? | -49%
Cc1cc(/C=C2/NC(=O)NC2=O)c(C)n1-c1ccc(C#N)cc1 | -8 | 1.1% | -13% | -14%
CN(C)CCNC(=O)Nc1ccc(F)cc1F | -10 | -0.2% | 5% | -2%
NC(=O)CCC(NS(=O)(=O)c1ccc(Cl)cc1)C(=O)NCC1CCCCC1 (stereo unspecified) | . | -2.1% | -23% | -2%
CC1CCN(C(=O)Cn2c(=O)oc3cc(S(=O)(=O)N4CCCCC4)ccc32)CC1 | . | 1.6% | 0% | -2%&3%
CN1CCN(S(=O)(=O)c2ccc(N(C)Cc3ccc(OC(F)F)cc3)c([N+](=O)[O-])c2)CC1 | . | 2.0% | -18% | .
CC(C)Oc1cc(NC(=O)CS(=O)(=O)CC(=O)N(C)C)c(Cl)cc1Cl | 12 | -1.0% | -7% | -3%
CC(C)COc1ccc(C(=O)Nc2ccc(N3CCOCC3)cc2N2CCOCC2)cc1 | . | 7.6% | -3% | -7%
Cc1ccccc1C(=O)N1CCN(c2ccc(NC(=O)c3ccco3)cc2Cl)CC1 | 2 | ? | -3% | ?
CN(CC(=O)Nc1ccc(F)cc1)C(=O)CCc1nc2ccccc2c(=O)[nH]1 | . | -3.5% | -8% | .
O=C(COc1ccc(Br)cc1)NC(=S)Nc1ccccc1N1CCOCC1 | . | 0.5% | -3% | -1%
CCOc1ccc(N2C(=O)CC(SC(=NC)Nc3ccc(F)cc3)C2=O)cc1 (stereo unspecified) | -1 | -4.7% | -9% | -4%
Cc1cc(C(=O)CN2C(=O)NC3(CCCc4sccc43)C2=O)c(C)n1-c1ccccc1 (stereo unspecified) | -10 | 1.0% | -21% | -18%
COCC(=O)N1CCN(c2nc3ccccc3o2)CC1 | 1 | -7.7% | -7% | -32%
C=CCNC(=O)NC(=O)COC(=O)CCCSc1nc2ccccc2[nH]1 | -4 | 1.1% | -8% | 0%

Quoted at random: 5 records from the list
SMILES | GLA inh pH 4.5 | Rango complex inh | Rango release inh | miR-21 FLuc
O=C(Nc1ccc2oc(=O)ccc2c1)c1ccc(-c2cccc([N+](=O)[O-])c2)o1 | -4 | 1.2% | 0% | -2%
Cc1cc(=O)[nH]c(Nc2ccc(Cl)cc2)n1 | . | 3.0% | 1% | 0%
Cc1ccccc1C(=O)N1CCN(c2ccc(NC(=O)c3ccco3)cc2Cl)CC1 | 2 | ? | -3% | ?
CC12CCC(c3c(C(=O)N4CCOCC4)nn(-c4ccccc4)c31)C2(C)C (stereo unspecified) | -1 | -1.5% | -15% | 8%
O=C1NC(CCc2ccccc2)C(=O)N1Cc1cccc2ccccc12 (stereo unspecified) | 3 | 0.6% | 1% | -2%

One compound at a time (already shown). Values in the order: GLA inh pH 4.5	Rango complex inh	Rango release inh	miR-21 FLuc
O=C(COc1ccc(Br)cc1)NC(=S)Nc1ccccc1N1CCOCC1 is entered as .	0.5%	-3%	-1%
O=C(c1cccc(-c2nnc(-c3ccccc3)o2)c1)N1CCCCC1 is entered as 3	0.0%	5%	-50%
Cc1ccccc1C(=O)N1CCN(c2ccc(NC(=O)c3ccco3)cc2Cl)CC1 is entered as 2	?	-3%	?
CN(CC(=O)Nc1ccc(F)cc1)C(=O)CCc1nc2ccccc2c(=O)[nH]1 is entered as .	-3.5%	-8%	.
CSc1cccc(NC(=O)COC(=O)C2CCN(S(=O)(=O)c3ccccc3)CC2)c1 is entered as .	-0.1%	-7%	.

(further entries)
SMILES | GLA inh pH 4.5 | Rango complex inh | Rango release inh | miR-21 FLuc
NNC(=O)c1cc(-c2ccc(O)cc2)nc2ccc(Br)cc12 | -7 | -0.8% | 45% | 0%
N#Cc1ccc(NC(=O)c2cc(-c3cccs3)on2)cc1 | 1 | -2.0% | 8% | -1%
O=C(NCCc1ccc2c(c1)OCCO2)c1ccc([N+](=O)[O-])cc1Cl | 3 | -0.1% | 9% | 3%
Cc1cc(C)c[n+](CC(=O)c2ccc(-c3ccccc3)cc2)c1 | -6 | ? | 2% | 11%
CCOC(=O)N1CCN(C(=O)c2ccc3c(c2)N(C)C(=O)/C(=C\c2ccc(OCC)c(OC)c2)S3)CC1 | . | ? | -12% | 26%
Cc1cccc(OCCOc2ccccc2C=C(C#N)C#N)c1 | 3 | -3.4% | 13% | -20%
CCOc1ccc2[nH]c(=O)c(C(c3nnnn3Cc3ccco3)N3CCCC(C)C3)cc2c1 (stereo unspecified) | -17 | -3.7% | 1% | 0%
CCCCNc1ncnc2c1nnn2Cc1ccccc1Cl | . | -1.0% | -10% | 2%
CC(=O)NCCc1nc2cc(NC(=O)c3ccc(Cl)cc3)ccc2n1C | . | 0.8% | 12% | -46%
COC(=O)c1c(C(=O)OC)c2ccccn2c1C(=O)c1ccccc1 | . | -2.4% | 0% | 11%
CCOC(=O)c1c(Nc2ccc(Cl)cc2)sc(/C=C2\C=Nc3ccccc32)c1O | 1 | ? | ? | -9%
Cc1cc(=O)cc(C)n1-c1ccc(Cl)c(Cl)c1 | . | 3.3% | 8% | -2%
O=C(CCNC(=O)c1ccc(Cl)cc1)Nc1cccc(S(=O)(=O)N2CCCCC2)c1 | . | -0.6% | 18% | .
CSc1nc(-c2ccccc2)cc(C)c1C#N | 2 | 6.6% | 3% | 0%
Cn1nc(C(=O)NCc2cccnc2)c2ccccc2c1=O | 5 | -1.9% | 1% | -6%
COc1ccc(NC(=O)C(=O)N/N=C/c2cccnc2)cc1 | -7 | 0.6% | 14% | 0%
O=C(c1ccco1)N1CCN(C(=O)C2CC(c3ccc(Cl)c(Cl)c3)=NO2)CC1 (stereo unspecified) | 0 | -3.6% | -5% | -2%
CCN(CC)C(=O)c1ccc2c(c1[N+](=O)[O-])C(=O)c1ccccc1C2=O | 8 | . | . | -38%
O=C(O)c1ccccc1C(=O)NC1CCN(c2nccc(C(F)(F)F)n2)CC1 | . | -0.7% | -9% | -7%
COc1ccccc1C(=O)NCC(=O)N1CCN(C/C=C/c2ccccc2)CC1 | . | -6.5% | 1% | .
COc1cccc(OC)c1C(=O)Nc1ccc(N2CCCCC2)cc1 | 1 | 4.0% | 9% | 7%
N#CCCN(C(=O)COc1ccc(Br)cc1F)c1ccc(F)cc1 | 4 | 3.3% | 3% | -4%
CCN1CC=C2C(C#N)=C(N)C(C#N)(C#N)[C@H](c3ccoc3)[C@H]2C1 | 16 | ? | ? | 0%
O=C(c1cn(Cc2ccccc2)nc1-c1cccnc1)N1CCc2ccccc2C1 | . | 5.9% | ? | .
O=C(COc1coc(CN2CCc3ccccc32)cc1=O)Nc1ccc([N+](=O)[O-])cc1 | . | -0.1% | -6% | .

Screens (PubChem BioAssay)

This is a subset. The share of hits here may be higher or lower than overall.
